2A firefly – lowers the firefly signal of an FMDV 2A StopGo reporter; HEK cells with a luciferase reporter of 2A StopGo recoding; Potency, µM (titrated, usually from 57.5 µM), without a hit: at the highest dose signal change, negative = less light; hit rate 0.23% among 120,000; AID 1745856; active = well fitted falling curve with a large enough effect; inconclusive = small, poorly fitted or top-dose-only effect; inactive = no such curve, though single readings can be large or run the other way; note: nearly all actives have a fitted effect of over 60% in size; overnight with compound
2A Renilla – lowers the Renilla signal of an FMDV 2A StopGo reporter. HEK cells with a luciferase reporter of 2A StopGo recoding. Potency, µM (titrated, usually from 57.5 µM), for the others: top-dose signal change, negative = less light. hit rate 0.32% among 120,000; active means well fitted falling curve with a large enough effect; inconclusive means small, poorly fitted or top-dose-only effect; inactive means no such curve, though single readings can be large or run the other way; note: nearly all actives have a fitted effect of over 55% in size; overnight with compound
* = called active by the depositor; & = joins results of further samples; [ ] = dose if it differs, or a comment. % is set by controls: 0 for no effect and ±100 for the full control effect; potency is the fitted concentration of half-maximal effect.

1: CCOc1ccc(-n2c(-c3ccccc3)c(C)n3c4c(=O)n(C)c(=O)n(C)c4nc23)cc1
2: O=C(Nc1ccc2c(c1)N(C1CCCC1)C(=O)c1ccccc1S2)c1cccc(F)c1
3: CC1(C(=O)NC2CCCCC2)Cc2ccccc2C(=O)N1Cc1ccc(F)cc1 (stereo not given)
4: COc1ccc(Cn2ccnc2SCC(=O)Nc2ccc3c(c2)OCCO3)cc1
5: COc1ccc2c(CN3CCN(c4ccccc4)CC3)cc(=O)oc2c1
6: Cc1ccc(OCC(=O)Nc2cc3nn(-c4ccccc4)nc3cc2C)cc1

assay / entry | 1 | 2 | 3 | 4 | 5 | 6
2A firefly | 24% | -4% | 0% | 36%[activator] | 7% | 6%
2A Renilla | 15% | 14% | -6% | 14% | -9% | 7%

7: COc1ccc(NC(=O)C2CCCN(S(=O)(=O)c3c(C)[nH]c(=O)[nH]c3=O)C2)c(OC)c1 (stereo not given)
8: COC(=O)c1[nH]c2cc(OC)ccc2c1NC(=O)CN1CCCCC1C (stereo not given)
9: Cc1cccc(S(=O)(=O)c2cn(C)c3cc(N4CCN(c5ccccc5)CC4)c(F)cc3c2=O)c1
10: CSC1=N/C(=C\c2ccccc2Br)C(=O)S1
11: Cc1ccc2nc(C3=C(O)CN(c4cccc(Cl)c4C)C3=N)[nH]c2c1
12: O=C(CSc1cccc[n+]1[O-])Nc1cccc2ccccc12

assay / entry | 7 | 8 | 9 | 10 | 11 | 12
2A firefly | -33% | 14% | -18% | 16% | 61%[activator] | 24%
2A Renilla | -11% | 215%[activator] | -16% | -8% | 25% | -7%

13: CCCCCCNc1nc2ccccc2nc1NS(=O)(=O)c1ccc(F)cc1
14: COc1ccc(-c2nnc3n2C(C)(C)Cc2c-3ccc3ccccc23)cc1OC
15: Cc1ccc2c(c1)-c1nc3ccccc3cc1/C2=C\c1cccnc1
16: COc1ccc(C)cc1NC(=O)c1oc2ccc(S(=O)(=O)N3CCCCC3)cc2c1C
17: O=C1Cc2cc(S(=O)(=O)Nc3ccc(OC(F)(F)F)cc3)cc3c2N1CCC3
18: O=C(Nc1ccc(F)c(Cl)c1)c1ccc(-c2ccccc2)cc1

assay / entry | 13 | 14 | 15 | 16 | 17 | 18
2A firefly | 7% | 13% | 185%[activator] | -18% | -3% | 118%[activator]
2A Renilla | 6% | 22% | -3% | -11% | 157%[activator] | 11%

19: CC(C)Sc1ccc(C(=O)NCC(O)c2ccccc2)cc1 (stereo not given)
20: CCc1ccc(NC(=O)Cn2c(=O)n(Cc3nc(C)no3)c(=O)c3cc4c(cc32)OCO4)cc1
21: Cn1nnc2c(C(N)=O)ncn2c1=O
22: N#Cc1ccc(NN)c([N+](=O)[O-])c1
23: CC(C)Oc1cccc(C(C)NC(=O)c2ccccc2Cl)c1 (stereo not given)
24: COCCOc1cc2c(cc1C=O)OCO2

assay / entry | 19 | 20 | 21 | 22 | 23 | 24
2A firefly | 161%[activator] | -13% | -9% | 0% | -7% | 12%
2A Renilla | 8% | -11% | -6% | 9% | -6% | 9%

25: COc1ccc(-c2nnc(SCC(=O)N3CCC(C)CC3)o2)cc1
26: O=C(COc1ccccc1)NCCc1csc(-c2ccc(Cl)cc2)n1
27: CCCCN(C(=O)Cn1c(=O)c2c(ncn2C)n(C)c1=O)c1ccccc1
28: O=C(c1ccccc1F)N(C1CCCC1)C1CC1
29: CN1CCN(C(=O)c2cnn(-c3ccc(F)cc3F)c2C2CCN(C(=O)OC(C)(C)C)CC2)CC1
30: CCOc1ccccc1CNC(=O)c1cnc2sc(N3CCCCCC3)nn2c1=O

assay / entry | 25 | 26 | 27 | 28 | 29 | 30
2A firefly | -7% | 3% | 2% | 5% | -26% | 7%
2A Renilla | 4% | 19% | -11% | 10% | -15% | -3%

31: Cc1ccc(-c2c(NC(=O)CN3CCC(C(N)=O)CC3)oc3ccccc3c2=O)cc1
32: CCOC(=O)C1C2C=CC(C3CC23)C1C(=O)OCC(=O)c1ccccc1 (stereo not given)
33: Cc1ccc(C(=O)Nc2ccc(C(=O)OCc3cc(=O)n4ccsc4n3)cc2)cc1
34: Cc1ccc(CNCCc2c[nH]c3ccccc23)cc1
35: CC1CCCCN1CCCCNC(=O)CCc1ccc(C#N)cc1 (stereo not given)
36: CCOc1ccc(N(Cc2nc3nc(C)cc(C)n3n2)S(=O)(=O)c2ccc(C)cc2)cc1

assay / entry | 31 | 32 | 33 | 34 | 35 | 36
2A firefly | 38%[activator] | 30%[activator] | 10% | -10% | 16% | -7%
2A Renilla | -17% | 36%[activator] | -6% | 4% | 7% | 103%[activator]

37: CCCOc1ccc(-c2[nH]c3c(c2-c2ccc(OC)cc2)c(=O)[nH]c(=O)n3C)cc1
38: CCCNC(=S)Nc1cccc(Cl)c1
39: C=CCSc1nnc(NC(=O)c2cc(=O)c3ccccc3o2)s1
40: COc1ccc(N(C)C(=O)C2CCN(S(=O)(=O)c3cc(Br)cc4c3N(C(C)=O)CC4)CC2)cc1
41: O=C(COC(=O)C1(c2ccc(Cl)cc2)CCCC1)Nc1cc([N+](=O)[O-])ccc1Cl
42: Cc1cc(N2CCCCC2)nc2ccc(NC(=O)CCC(=O)N3CCN(c4cccc(Cl)c4)CC3)cc12

assay / entry | 37 | 38 | 39 | 40 | 41 | 42
2A firefly | -7% | 0% | 2% | -15% | -24% | 11%
2A Renilla | 1% | 240%[activator] | -9% | -6% | -26% | -23%

43: Cn1cccc1/C=C(\C#N)c1ccc(F)cc1
44: Cc1ccccc1OCCn1cc(C(=O)C2CC2)c2ccccc21
45: COC(=O)c1c(-c2ccc(Cl)cc2)noc1N1CCN(c2ccccc2OC)CC1
46: COCCNC(=O)CCC(=O)NNc1nc2ccccc2c2nc(-c3ccccc3)nn12
47: COc1ccc(Oc2c(C)oc3cc(OCC(=O)N4CCN(C)CC4)ccc3c2=O)cc1
48: COc1ccccc1NC(=O)c1oc2ccccc2c1NC(=O)C(C)C

assay / entry | 43 | 44 | 45 | 46 | 47 | 48
2A firefly | 0% | 18% | -15% | 8% | 2% | -4%
2A Renilla | 28% | 16% | -16% | -12% | 4% | -7%

Another view of some results above:
item	SMILES	2A firefly	2A Renilla
43	Cn1cccc1/C=C(\C#N)c1ccc(F)cc1	0%	28%
44	Cc1ccccc1OCCn1cc(C(=O)C2CC2)c2ccccc21	18%	16%

Additional structures follow.
49: Cn1c(=O)c2c(nc(NCc3ccccc3)n2Cc2ccc(Cl)c(Cl)c2)n(C)c1=O
50: CCN(Cc1ccccc1)c1ncnc2c1cnn2-c1ccc(F)cc1
51: CC(C)c1ccc(S(=O)(=O)c2nnn3c2nc(N2CCOCC2)c2sccc23)cc1
52: CNC(=O)c1c(NC(=O)Cc2coc3ccc(C)cc23)sc2c1CCCC2
53: CCC1Oc2ccc(C)cc2N(CC(=O)NCc2ccc(F)cc2)C1=O (stereo not given)
54: CCOCCCNc1oc(/C=C/c2cccc(OC)c2)nc1C#N

assay / entry | 49 | 50 | 51 | 52 | 53 | 54
2A firefly | -9% | 220%[activator] | 13%&-13% | 47%[activator] | -8% | 145%[activator]
2A Renilla | 1% | -1% | 0%&-5% | 201%[activator] | 2% | 32%[activator]

55: COc1ccc(/C=C/c2nc3ccccc3o2)cc1OCC(C)C
56: O=C(c1cccc([N+](=O)[O-])c1)N1CCN(CCc2ccncc2)CC1
57: Cc1nnc(NC(=O)CSCc2cc(=O)c3ccc(C)c(C)c3[nH]2)s1
58: Cn1cc(S(=O)(=O)N2CCCC2)cc1C(=O)N1CCN(c2cccc(Cl)c2)CC1
59: C#CCOc1ccc(OC(=O)c2ccc(OCCCCCC)cc2)cc1
60: COc1ccc(CCNC(=O)CCCn2c(=O)c3ccccc3n(Cc3cccc(Cl)c3)c2=O)cc1OC

assay / entry | 55 | 56 | 57 | 58 | 59 | 60
2A firefly | 8% | -9% | 0% | -15% | 10% | -11%
2A Renilla | 3% | -5% | 1% | -13% | -9% | -2%

(more compounds)
Values run as follows: 2A firefly, 2A Renilla
61. Cc1nc(Oc2ccccc2Cl)c2c3c(sc2n1)CCC3
    -1%, -12%
62. Cc1c(NC(=O)c2nn(C(C)C)c(=O)c3ccccc23)c(=O)n(-c2ccccc2)n1C
    30%[activator], 32%[activator]
63. c1ccc(CCN(Cc2ccccc2)Cc2cccc(OCc3ccccc3)c2)cc1
    5%, -6%[1.06 µM]
64. CCOc1ccc(NCc2cccn2-c2nnc(N3CCC(C(=O)NCc4cccc(OC)c4)CC3)s2)cc1
    -31%, -30%
65. CC(=O)Oc1ccc(C2(c3ccc(OC(C)=O)cc3)C(=O)Nc3ccccc32)cc1
    4%[11.5 µM], 22%
66. Cc1[nH]nc2c1C(c1ccc3c(c1)OCCO3)SCC(=O)N2 (stereo not given)
    1%, -13%
67. O=C(OCc1cc([N+](=O)[O-])cc2c1OCOC2)C12CC3CC(CC(Br)(C3)C1)C2
    13%, -10%
68. Cc1cccc(NC(=O)N2CCN3CCCCC3C2)c1C (stereo not given)
    -16%, 9%
69. COc1cccc(Cn2c(=O)n(-c3cc(C)cc(C)c3)c(=O)c3oc4ccccc4c32)c1
    0%, -8%
70. NS(=O)(=O)c1ccc(NC(=O)COc2ncnc3ccccc23)cc1
    8%, 3%
71. CCc1nc2ccc(C(=O)NC3CC3)cc2nc1CC
    16%, -1%
72. COc1ccc(CNC(=O)c2ccc(C)cc2)cc1
    0%, 18%
73. CC(=O)N1CCc2cc(CNS(=O)(=O)c3ccc(Cl)s3)ccc21
    0%, 104%[activator]
74. Cc1ccc(NC(=O)CN(C)S(=O)(=O)c2ccc3nc(C)sc3c2)c(C)c1
    0%, 20%
75. Cc1cc(C)n2nc(SC(C)C(=O)Nc3ccc(F)cc3Cl)nc2n1 (stereo not given)
    6%, 0%
76. CCOC(=O)c1ccc(/C=C/c2ccccn2)cc1
    112%[activator], 11%
77. COc1ccccc1Cn1c(C2CC(=O)N(c3ccccc3OC)C2)nc2ccccc21 (stereo not given)
    -19%, 24%
78. CCc1cccc(NC(=O)c2cc3c(=O)[nH]c4ccccc4c3n2C)c1
    10%, 18%
79. O=C(CSc1nnc(-c2ccc(Cl)cc2)o1)N1CCc2ccccc21
    -8%, -2%
80. CCSc1oc(-c2cccs2)nc1S(=O)(=O)c1ccc(Br)cc1
    -11%, 156%[activator]
81. COc1ccc(CCNC(=O)CCc2cn(Cc3ccc(C)cc3)c3ccccc23)c(OC)c1OC
    -14%, -6%
82. CCCn1c(Cl)nc2c1c(=O)n(C)c(=O)n2C
    -5%, -14%
83. COC(=O)CNC(=O)Cn1ccc2ccc(OCc3ccccc3)cc21
    76%[activator], 16%
84. Cc1cccc(OCC(=O)NCC2(N3CCN(C)CC3)CCCCC2)c1
    -13%, -4%
85. COc1ccc(C)cc1NC(=O)CCc1ncc(-c2ccc(C)cc2)o1
    9%, -3%
86. CC(C)(Sc1cc(C(C)(C)C)c(O)c(C(C)(C)C)c1)Sc1cc(C(C)(C)C)c(O)c(C(C)(C)C)c1
    -10%[11.5 µM], -8%
87. Cc1cc(C)c2oc(C(=O)Nc3ccc(S(=O)(=O)N4CCC(C)CC4)cc3)cc(=O)c2c1
    9%&-18%, 5%&-13%
88. COc1ccc(CCNC(=O)CCc2c(C)nc3c(c(C)nn3-c3ccccc3)c2C)c(OC)c1
    -6%, -15%
89. Cc1cccc(-c2nc3c(cnn3-c3ccccc3)c(=O)n2-c2ccc(Cl)cc2)c1
    79%[activator], 4%
90. Cc1cc(-n2c(C)nc3ccccc3c2=O)ccc1NC(=O)c1cccc([N+](=O)[O-])c1
    -16%, -21%
91. CCOC(=O)c1c(C)[nH]c(C)c1S(=O)(=O)N1CCCC(C(=O)Nc2ccc(OC)c(Cl)c2)C1 (stereo not given)
    -6%, 115%[activator]

In the list so far, twelve have fluorine.
Values run as follows: 2A firefly, 2A Renilla
2. O=C(Nc1ccc2c(c1)N(C1CCCC1)C(=O)c1ccccc1S2)c1cccc(F)c1
    -4%, 14%
3. CC1(C(=O)NC2CCCCC2)Cc2ccccc2C(=O)N1Cc1ccc(F)cc1 (stereo not given)
    0%, -6%
9. Cc1cccc(S(=O)(=O)c2cn(C)c3cc(N4CCN(c5ccccc5)CC4)c(F)cc3c2=O)c1
    -18%, -16%
13. CCCCCCNc1nc2ccccc2nc1NS(=O)(=O)c1ccc(F)cc1
    7%, 6%
17. O=C1Cc2cc(S(=O)(=O)Nc3ccc(OC(F)(F)F)cc3)cc3c2N1CCC3
    -3%, 157%[activator]
18. O=C(Nc1ccc(F)c(Cl)c1)c1ccc(-c2ccccc2)cc1
    118%[activator], 11%
28. O=C(c1ccccc1F)N(C1CCCC1)C1CC1
    5%, 10%
29. CN1CCN(C(=O)c2cnn(-c3ccc(F)cc3F)c2C2CCN(C(=O)OC(C)(C)C)CC2)CC1
    -26%, -15%
43. Cn1cccc1/C=C(\C#N)c1ccc(F)cc1
    0%, 28%
50. CCN(Cc1ccccc1)c1ncnc2c1cnn2-c1ccc(F)cc1
    220%[activator], -1%
53. CCC1Oc2ccc(C)cc2N(CC(=O)NCc2ccc(F)cc2)C1=O (stereo not given)
    -8%, 2%
75. Cc1cc(C)n2nc(SC(C)C(=O)Nc3ccc(F)cc3Cl)nc2n1 (stereo not given)
    6%, 0%

Screening data deposited in PubChem BioAssay by National Center for Advancing Translational Sciences (NCATS).
